Screens (PubChem)
NPYLR7 ag: activates Aedes aegypti NPYLR7 receptor. HEK293T NPYLR7/Galpha15, GCaMP6s calcium fluorescence. activation, % at 10 µM. 0.15% of 270,000 active. AID 1259423; in the data active = activation above about 40%;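 note: 0% = vehicle and 100% = reference agonist at the receptor; some compounds past the cut are filed as inactive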
NPYLR7 ag max-min: recorded beside NPYLR7 ag, whose call it bears; activation, %; measured here: Max-Min RFU normalised activation; some inactives read as strong as hits;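 span of the calcium signal over five minutes; 0% = vehicle and 100% = native peptide agonist; compound fluorescence can raise it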
Numbers without * were called inactive. Some of the compounds tested (hit frequency here may not be typical).

Values in the order: NPYLR7 ag | NPYLR7 ag max-min
1: CC(C)Oc1cccc(-c2csc(C(N)=O)c2)c1
    2 | -2
2: COc1ccc(CC2CN(Cc3ccc(OC)c(F)c3)CCO2)cc1 (centres undefined)
    9 | 7
3: CC(=O)Nn1c(C)cc(CN2CCC(CNC(=O)C(C)(C)C)C2)c1C (centres undefined)
    3 | 1
4: O=C(c1ccoc1)N1CCN(CC(OCc2ccc(C(F)(F)F)cc2)c2ccc(Cl)cc2)CC1 (centres undefined)
    -2 | 4
5: CCCc1cc(CN(C)Cc2cnc(S(=O)(=O)CCC)n2CC2CCCO2)[nH]n1 (centres undefined)
    4 | -4
6: CC1=C(C(=O)Nc2ccc(C)cc2)C(c2ccc(Cl)cc2Cl)NC(=O)N1 (centres undefined)
    -12 | -20
7: C=CCOC1C[C@](OCc2cccc(C)c2)(C(=O)NN2CCOCC2)C[C@H]2OC(C)(C)O[C@@H]12 (some centres undefined)
    11 | 10
8: NC(=O)c1ccccc1-n1cc(-c2cccc(C(=O)O)c2)cn1
    11 | 1
9: Cc1nc(S(=O)(=O)N2CC(c3cccnc3)C2)cn1C
    0 | 0
10: Cc1ccccc1-n1c(SCc2nc(C(=O)O)cs2)nnc1-c1cccnc1
    -3 | -10
11: CN(C)c1ccc(NC(=O)C2CCCC2)cc1CN(Cc1cccc(F)c1)C(=O)C1CC1
    -4 | 6
12: CC(=O)c1ccc(COC(=O)CCc2nc3ccccc3[nH]c2=O)cc1
    8 | 7
13: CCCCC(CC)C(=O)N1CCc2cc(OC)c(OC)cc2C1c1ccccc1Cl (centres undefined)
    9 | 3
14: COC(=O)c1ccc(NC(=O)N2CC(=O)N3CCc4cc(OC)c(OC)cc4C3C2)cc1 (centres undefined)
    32 | 16
15: O=S(=O)(c1ccc2oc(=S)[nH]c2c1)N1CCCCC1
    -2 | -6
16: Cc1nnc(S(=O)(=O)CCc2ccccc2)n1C1CCCCC1
    -2 | -2
17: CN1CCN(C(=O)[C@@H]2C[C@H](C(=O)O)CN(Cc3ccccc3)C2)CC1
    11 | 10
18: Cc1ccc(-c2ccc(=O)n(CC#N)n2)cc1C
    12 | 10
19: Cc1[nH]n(-c2nc(-c3ccccc3)cs2)c(=O)c1N=Nc1ccccc1C(=O)O
    -10 | -19
20: CCOC(=O)C1=C(C)N=c2s/c(=C\c3c(OC)ccc4ccccc34)c(=O)n2C1c1ccccc1 (centres undefined)
    7 | 13
21: Cc1nc(-c2c[nH]c(C(=O)N(C)C3CCC(C)CC3)c2)cs1 (centres undefined)
    9 | 9
22: Cc1nc(NC(=O)C23CCC(C)(C(=O)C2)C3(C)C)sc1C (centres undefined)
    -4 | -8
23: CCOC(=O)[C@@H](CCc1ccccc1)N[C@@H](C)C(=O)N1CCC[C@H]1C(=O)O
    9 | -2
24: COc1ccc(C(O)(c2ccc(OC)cc2)c2ccc(CN(Cc3ccco3)CC3CCCO3)o2)cc1 (centres undefined)
    3 | -1
25: CCn1c(CN2CCCCCC2=O)n[nH]c1=S
    3 | 5
26: CCOC(=O)c1c(CN2CCC(C)CC2)n(-c2ccccc2)c2cc(Br)c(OC)cc12
    -7 | -13
27: Cc1ccsc1C(=O)c1ccc(Cl)cc1F
    12 | 9
28: COCCCNC(=O)c1cc(-c2cccc(OC)c2)nn1-c1ccc(OC)cc1
    -6 | 2
29: CC(=O)O[C@H]1C[C@@H]2CC[C@@H]3[C@H](CC[C@@]4(C)[C@H]3C[C@H]([N+]3(C)CCCCC3)[C@@H]4OC(C)=O)[C@@]2(C)C[C@@H]1N1CCCCC1
    -3 | -4
30: CCNC(=S)NCC1c2cc(OC)c(OC)cc2CCN1Cc1cccc(C)c1 (centres undefined)
    -9 | 0
31: OC1(c2cccnc2)CCN(c2nccc(CCC(F)(F)F)n2)CC1
    -10 | -13
32: OC1(c2ccc(Br)cc2)CN(c2ccccc2)C2=[N+]1CCCS2 (centres undefined)
    8 | 9
33: COc1ccccc1Cc1nc2c(c(N3CCOCC3)n1)CN(C(=O)Nc1c(Cl)cccc1Cl)CC2
    -8 | -9
34: CCC(c1nc2ccccc2c(=O)n1-c1ccc(Br)cc1)N(CCc1ccccc1)C(=O)CCC1CCCC1 (centres undefined)
    0 | -13
35: CN(Cc1ccsc1)C(=O)c1cnn2cc(CCO)cnc12
    1 | 1
36: CN(CC1OCCc2ccccc21)C(=O)c1cc(C2CC2)[nH]n1 (centres undefined)
    -8 | -11
37: CCOc1ccc(NC(=O)N(CC(=O)Nc2cc(C(C)(C)C)nn2-c2cccc(C)c2)Cc2ccccc2)cc1
    20 | 20
38: CC(C)N1CCN(C(=O)c2ccc(NC(=O)c3cccs3)cc2)CC1
    4 | 3
39: O=C(NCC1=CCCCC1)c1ccccc1N1CCS(=O)(=O)CC1
    -3 | -8
40: CCN(CC)S(=O)(=O)c1ccc(OC)c(N2CCN(C(=O)c3cc(C)on3)CC2)c1
    27 | 43
41: COc1cccc(COc2coc(CN3CCCN(C(=O)C(F)(F)C(F)(F)C(F)(F)F)CC3)cc2=O)c1
    -1 | 7
42: O=C(CN1CCOCC1)Nc1cc(Cl)ccc1Oc1ccccc1
    6 | 1
43: O=C1C(=Cc2ccc(Cl)c(Cl)c2)SC(=S)N1CCCN1CCOCC1
    4 | 1
44: Cc1ccc(C)n1-n1cnc2sc3c(c2c1=O)CCC(C)C3 (centres undefined)
    0 | -1
45: CCOC(=O)CC(=O)CSc1cc(C)nc2c(-c3ccccc3)c(C)nn12
    -6 | -9
46: CCCC(=O)Nc1cccc(C(=O)NC(C)Cc2cnccn2)c1 (centres undefined)
    4 | 4
47: COc1ccc(C(=O)N(CC(=O)N2CC(=O)N(c3ccc(C)cc3)C2)CC(C)C)c(OC)c1
    12 | 16
48: C#CCn1c(O)c(N=NC(=O)CNC(=O)c2ccco2)c2ccccc21
    -12 | -15
49: Cc1ccn2c(NC(C)(C)CC(C)(C)C)c(-c3ccc4c(c3)OCO4)nc2c1
    -5 | -3
50: NS(=O)(=O)c1ccc(C(=O)NCCCn2nc(-c3ccccc3)ccc2=O)cc1
    3 | 1
51: c1ccc(CC2CN(Cc3ccc(Oc4ncccn4)cc3)CCO2)cc1 (centres undefined)
    13 | 10
52: Cc1cc(C)c2oc(=O)n(C3CCN(C(=O)c4cccs4)CC3)c2c1
    31 | 29
53: O=C1CCc2cc(S(=O)(=O)N3CC(c4ccccn4)C3)ccc2N1
    -1 | -1
54: CCOc1ncccc1CN1CCC(C(=O)N2CCC(O)(Cc3ccccc3)CC2)CC1
    0 | -6
55: Cc1cccc(NC2=NC(=S)N(CC#N)C23CCCCC3)c1
    9 | 6
56: Cc1ccc(C)c(OC(C)C(=O)Nc2c(C)nc3sccn3c2=O)c1 (centres undefined)
    2 | 1
57: COCc1ccccc1C(=O)Nc1cc(C(C)C)[nH]n1
    -3 | -6
58: CCCCc1ccc(Nc2nnc(SCC(=O)N(C(C)C)C(C)C)s2)cc1
    -5 | -7
59: CCOc1cc(-c2nc3ccccn3c2N=Cc2cc([N+](=O)[O-])ccc2O)ccc1O
    -7 | -15
60: O=S(=O)(NCc1ccc(OCC(F)(F)F)cc1)c1cnc[nH]1
    -2 | 11
61: CCCN(C)c1nc(-c2ccccc2)nc2c1CN(C(=O)Nc1ccc(SC)cc1)CC2
    -2 | 0
62: CCOc1ccc(-n2nnc(C(=O)OCc3nc(-c4ccc(OC(C)C)cc4)oc3C)c2C)cc1
    11 | 1

Ordered by molecular weight (highest first): 24 of the compounds above.
Values in the order: NPYLR7 ag | NPYLR7 ag max-min
41: COc1cccc(COc2coc(CN3CCCN(C(=O)C(F)(F)C(F)(F)C(F)(F)F)CC3)cc2=O)c1
    -1 | 7
33: COc1ccccc1Cc1nc2c(c(N3CCOCC3)n1)CN(C(=O)Nc1c(Cl)cccc1Cl)CC2
    -8 | -9
62: CCOc1ccc(-n2nnc(C(=O)OCc3nc(-c4ccc(OC(C)C)cc4)oc3C)c2C)cc1
    11 | 1
47: COc1ccc(C(=O)N(CC(=O)N2CC(=O)N(c3ccc(C)cc3)C2)CC(C)C)c(OC)c1
    12 | 16
61: CCCN(C)c1nc(-c2ccccc2)nc2c1CN(C(=O)Nc1ccc(SC)cc1)CC2
    -2 | 0
54: CCOc1ncccc1CN1CCC(C(=O)N2CCC(O)(Cc3ccccc3)CC2)CC1
    0 | -6
40: CCN(CC)S(=O)(=O)c1ccc(OC)c(N2CCN(C(=O)c3cc(C)on3)CC2)c1
    27 | 43
59: CCOc1cc(-c2nc3ccccn3c2N=Cc2cc([N+](=O)[O-])ccc2O)ccc1O
    -7 | -15
50: NS(=O)(=O)c1ccc(C(=O)NCCCn2nc(-c3ccccc3)ccc2=O)cc1
    3 | 1
58: CCCCc1ccc(Nc2nnc(SCC(=O)N(C(C)C)C(C)C)s2)cc1
    -5 | -7
32: OC1(c2ccc(Br)cc2)CN(c2ccccc2)C2=[N+]1CCCS2 (centres undefined)
    8 | 9
45: CCOC(=O)CC(=O)CSc1cc(C)nc2c(-c3ccccc3)c(C)nn12
    -6 | -9
49: Cc1ccn2c(NC(C)(C)CC(C)(C)C)c(-c3ccc4c(c3)OCO4)nc2c1
    -5 | -3
51: c1ccc(CC2CN(Cc3ccc(Oc4ncccn4)cc3)CCO2)cc1 (centres undefined)
    13 | 10
52: Cc1cc(C)c2oc(=O)n(C3CCN(C(=O)c4cccs4)CC3)c2c1
    31 | 29
31: OC1(c2cccnc2)CCN(c2nccc(CCC(F)(F)F)n2)CC1
    -10 | -13
39: O=C(NCC1=CCCCC1)c1ccccc1N1CCS(=O)(=O)CC1
    -3 | -8
42: O=C(CN1CCOCC1)Nc1cc(Cl)ccc1Oc1ccccc1
    6 | 1
53: O=C1CCc2cc(S(=O)(=O)N3CC(c4ccccn4)C3)ccc2N1
    -1 | -1
60: O=S(=O)(NCc1ccc(OCC(F)(F)F)cc1)c1cnc[nH]1
    -2 | 11
46: CCCC(=O)Nc1cccc(C(=O)NC(C)Cc2cnccn2)c1 (centres undefined)
    4 | 4
35: CN(Cc1ccsc1)C(=O)c1cnn2cc(CCO)cnc12
    1 | 1
44: Cc1ccc(C)n1-n1cnc2sc3c(c2c1=O)CCC(C)C3 (centres undefined)
    0 | -1
55: Cc1cccc(NC2=NC(=S)N(CC#N)C23CCCCC3)c1
    9 | 6
